# KAT2A inh = GCN5L2 (KAT2A) acetyltransferase inhibition; hit rate 0.21% among 390,000; GCN5L2 HAT assay, ThioGlo1 CoA-SH fluorescence; Potency, µM (titrated, usually from 58.9 µM), for the others: at the top dose activity change, negative = inhibition, actives largely listed as inhibitors; AID 504327; Q92830
# Target sequence (Q92830 whole entry, looked up): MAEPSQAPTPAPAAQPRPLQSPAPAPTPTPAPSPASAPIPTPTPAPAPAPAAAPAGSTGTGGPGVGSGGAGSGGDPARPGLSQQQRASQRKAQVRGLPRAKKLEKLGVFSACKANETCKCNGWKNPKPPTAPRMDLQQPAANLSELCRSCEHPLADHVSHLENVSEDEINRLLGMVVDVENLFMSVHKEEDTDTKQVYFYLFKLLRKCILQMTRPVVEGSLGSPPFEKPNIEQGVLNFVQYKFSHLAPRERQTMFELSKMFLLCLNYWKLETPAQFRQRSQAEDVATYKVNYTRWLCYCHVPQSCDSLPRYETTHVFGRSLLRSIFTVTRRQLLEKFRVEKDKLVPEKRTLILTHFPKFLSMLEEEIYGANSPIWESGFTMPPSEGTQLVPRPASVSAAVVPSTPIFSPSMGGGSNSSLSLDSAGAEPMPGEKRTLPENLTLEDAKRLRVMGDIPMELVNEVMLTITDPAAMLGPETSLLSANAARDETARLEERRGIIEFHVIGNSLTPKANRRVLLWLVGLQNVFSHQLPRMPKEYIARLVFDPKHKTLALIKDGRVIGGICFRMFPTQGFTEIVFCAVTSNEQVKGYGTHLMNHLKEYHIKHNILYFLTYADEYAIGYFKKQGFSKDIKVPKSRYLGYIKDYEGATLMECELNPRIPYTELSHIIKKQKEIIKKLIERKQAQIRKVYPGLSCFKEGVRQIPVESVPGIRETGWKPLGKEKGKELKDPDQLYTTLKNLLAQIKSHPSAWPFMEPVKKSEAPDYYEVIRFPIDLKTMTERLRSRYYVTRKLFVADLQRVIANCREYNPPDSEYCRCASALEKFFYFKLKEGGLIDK
#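 Titration-based screen in which CoA formation is detected via maleimide probe ThioGlo1 (50uM) turning fluorescent on thiol reaction; substrates H3(1-25) 75uM and acetyl-CoA 70uM, GCN5L2 20nM, 20 min incubation at room temperature.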
# FEN1 inhibitor = inhibitors of human flap endonuclease 1; Potency, µM (series often up to 114 µM), for the others: at the highest dose activity change, negative = inhibition, usual class: inhibitors; hit rate 0.35% among 390,000; P39748; Recombinant FEN1 flap cleavage, fluorescence, 15 min; further: nearly all actives have a fitted effect of over 65% in size
#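 With each library titrated from low to high concentration, compounds met 10 nM FEN1 for 15 min at room temperature before 50 nM substrate was added; readings at 0 and 15 min fed four-parameter Hill curve fits.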
# An asterisk follows results filed as active; ? = inconclusive; . = no result given; & = joins results of further samples; [ ] = remark or other dose. The call rests on the fitted dose curve; in most records, active means well fitted curve in the direction sought with a large enough effect; inconclusive means small, poorly fitted or top-dose-only effect, or another doubt; inactive means no such curve, though single readings can be large; an effect the other way counts as inactive or inconclusive. On the % scale 0 is the no-effect control and ±100 the full control effect; potency means the concentration at half of the fitted maximal effect. Some of the compounds tested, and most or all hits are left out here.
SMILES,KAT2A inh,FEN1 inhibitor
COc1ccc(C2=NN(C(=O)c3ccco3)C(c3ccco3)C2)cc1OC (stereo not drawn),-8.6%,7.6%
O=C(NCc1ccc2c(c1)OCO2)C(=O)NCC(c1ccco1)N1CCN(c2ccccc2)CC1 (stereo not drawn),4.1%,1.7%
CCN(CC)CCN(C(=O)c1ccc2c(c1)OCCO2)c1nc2ccc(C)cc2s1,-4.2%,-7.3%
O=C(NCCc1ccccc1)c1cc(S(=O)(=O)N2CCOCC2)ccc1F,3.8%,-2.6%
CCOc1ccc(Cn2nnc(C(=O)Nc3ccc(OC)cc3OC)c2N)cc1,-1.0%,13.3%
Cc1cc(=O)n2nc(N3CCCC3C(=O)NCCCN3CCCCC3)sc2n1 (stereo not drawn),-1.9%,-8.5%
COc1ccc(C(=O)Nc2ccc(N3CCN(C(C)=O)CC3)cc2)cc1[N+](=O)[O-],-1.1%,.
C#CCONC(=O)c1cc(OCC(F)(F)F)ccc1OCC(F)(F)F,-22.8%,-18.7%
O=C(Nc1ccc(N2CCOCC2)cc1)c1c(F)cccc1Cl,-4.2%,0.8%
COC(=O)CN(c1nc(C)c(Br)c(OC)n1)S(=O)(=O)c1ccccc1,-5.1%,7.9%
COc1ccccc1/C=N/NS(=O)(=O)c1ccccc1,-15.0%,-1.7%
CCOC(=O)C1CCN(S(=O)(=O)c2cn(C)c(=O)n(C)c2=O)CC1,-4.3%,-9.6%
CCNc1nc(SCCOc2ccc(Br)cc2)nc(N(C)C)n1,-8.1%,14.9%
CC(C)(C)n1ncc2c(=O)n(CC(=O)NC3CCCCC3)cnc21,-27.1%,-10.5%
Cc1ccc(S(=O)(=O)Nc2nc3ccc(N)cc3s2)cc1,-5.4%,-3.8%
NCCS(=O)(=O)O,-1.6%,-6.4%
CC(C)c1[nH]nc2c1C1(CCN(Cc3ccccc3)CC1)C(C#N)=C(N)O2,-0.4%,4.1%
COC(=O)C1=C(C)NC(C)=C(C(=O)OC)C1c1ccc(N(C)C)cc1,?,1.3%
O=C(/C=C/c1ccccc1)N1CCN(CC(O)COc2ccccc2)CC1 (stereo not drawn),-23.3%,-0.9%
Cc1cc(=O)cc(C)n1-c1ccc(O)cc1,-3.0%,1.1%
Cc1cc2nc(C3CCCN(C(=O)NCc4ccccc4)C3)[nH]c2cc1C (stereo not drawn),0.1%,12.5%
CCCOc1ccc(N2C(=O)CC(N3CCN(c4nc5ccccc5s4)CC3)C2=O)cc1 (stereo not drawn),-0.3%,-0.9%
COc1ccc(S(=O)(=O)NCCC(=O)OCc2cc(=O)oc3cc(C)ccc23)cc1[N+](=O)[O-],-7.5%,8.6%
Cc1ccc(OCC(=O)NC2CCS(=O)(=O)C2)c(C)c1 (stereo not drawn),-9.4%,-5.0%
C#CC(C)(C)NC(=O)c1sccc1Oc1ccc(F)cc1[N+](=O)[O-],-11.2%,8.1%
Cc1cc(CN2C(=O)c3ccccc3C2=O)no1,-8.0%,-0.9%
Cc1cc(NC(=O)Cc2cc(F)cc(F)c2)no1,-14.0%,-7.9%
CN1C2CCC1CC(NC(=O)CSc1ccc(C(C)(C)C)cc1)C2 (stereo not drawn),0.8%,-17.1%
COC(=O)Cc1ccc(NC(=O)c2ccc(C(C)(C)C)cc2)cc1,-0.4%[0.501 µM],-6.7%
Cc1cccc(S(=O)(=O)N2CCN(Cc3ccc4c(c3)OCO4)CC2)c1,-7.4%,-3.4%
Cn1c(=O)c2cn3c(c2n(C)c1=O)C(c1ccccc1)CC(c1ccccc1)=N3 (stereo not drawn),.,5.7%
COc1ccc(-c2cc(C)no2)cc1S(=O)(=O)N1CCOc2ccc(Cl)cc21,-1.1%&4.8%,20.5%&4.9%
CCn1c2c(c(=N)c3c1CCC3)CCC2,0.6%,-1.2%
COc1ccc(N2CCN(S(=O)(=O)CCNC(=O)c3cccs3)CC2)cc1,-4.3%,-6.7%
O=C(O)c1cccc(NS(=O)(=O)c2ccc3c4c(cccc24)C(=O)N3)c1,-8.7%,-3.4%
C=CCNC(=O)CC(=O)N/N=C/c1ccc(F)cc1,-1.1%,-3.2%
CC(NS(=O)(=O)c1ccc(F)cc1)C(=O)NCc1ccncc1 (stereo not drawn),-8.9%,3.3%
CN1CCC(N(C)S(=O)(=O)c2ccc(NC(=O)COc3ccc(F)cc3Cl)cc2)CC1,-9.6%,-2.6%
COc1ccc(N(C)S(=O)(=O)c2c(C)[nH]c(=O)[nH]c2=O)c(OC)c1,-4.1%,-0.2%
CC(OC(=O)c1ccc2ccccc2n1)C(=O)Nc1ccc(N2CCOCC2)cc1 (stereo not drawn),3.3%,-4.7%
Nc1ccn([C@@H]2CC[C@H](CO)O2)c(=O)n1,4.9%[21.4 µM],.
COc1ccc(C(CNC(=O)COc2ccc(C)c(C)c2)N2CCCCC2)cc1 (stereo not drawn),-2.8%&0.1%,9.9%&-4.9%
Cc1ccc(C)c(Cn2cnc3c(oc4ccccc43)c2=O)c1,-2.4%,-6.2%
O=C(NCCCN1CCCC1=O)C1CCCO1 (stereo not drawn),-8.7%,-0.2%
O=C(O)CCC(=O)N1N=C(c2ccccc2)CC1c1cccs1 (stereo not drawn),-0.7%,4.4%
CCOC(=O)N1CCN(C(=O)c2ccc(NC(C)=O)cc2)CC1,-5.4%,-1.5%
CCn1c(SCC(=O)NCC2CCCO2)nc2c([nH]c3ccccc32)c1=O (stereo not drawn),-5.5%,0.4%
O=C(Cc1ccccc1)c1c[nH]c(C(=O)NCCCn2ccnc2)c1,-3.2%,.
Cc1nc2ncnn2c(C)c1CCC(=O)N1CCCCC1,-8.8%,-10.2%
O=c1c2ccccc2ncn1-c1ccc(Br)cc1[N+](=O)[O-],-3.4%,0.8%
Cc1ccc(C(=O)NN=C2CCCCCC2)s1,0.6%,18.7%
CC1(C)CC(=O)C(C=NCC2CCNCC2)=C(O)C1,-7.6%,9.0%
CCO[C@H]1OC(C(=O)O)=C[C@@H](c2ccc3c(c2)OCO3)[C@@H]1CCCO,-3.8%,-17.5%
Cc1ccccc1NC(=O)NC1CCS(=O)(=O)C1 (stereo not drawn),-3.2%,0.9%
CCOC(=O)c1sc(NC(=O)c2cc(S(=O)(=O)N3CCOCC3)ccc2C)nc1C,-0.1%,-1.1%
CCOc1ccc(N(CC(=O)NCc2cccc(OC)c2)S(=O)(=O)c2c(C)noc2C)cc1,-24.9%,-6.3%
CCCCCCCNC(=O)COc1ccc2c(c1)C(=O)CC(C)(C)O2,-4.4%[0.501 µM],-11.9%
OCC(CO)(CO)n1cnnn1,3.1%,-11.5%
O=C(CC1SC(N2CCOCC2)=NC1=O)Nc1ccc(Cl)cc1 (stereo not drawn),-0.4%,5.3%
O=C(CN1C(=O)S/C(=C/c2cc(Br)cs2)C1=O)N1CCOCC1,20.5%,-13.6%

# (continued)
SMILES,KAT2A inh,FEN1 inhibitor
Cn1cc(CCNC(=O)CC2C(=O)NCCN2Cc2cccc(Oc3ccccc3)c2)cn1 (stereo not drawn),1.9%,7.7%
COC(=O)c1cc2c(=O)c3ccccc3oc2nc1C,-0.8%,2.9%
CC1(c2nnc(-c3cccc(Cl)c3)o2)CC(c2cccc([N+](=O)[O-])c2)=NO1 (stereo not drawn),-6.3%,-15.4%
COc1ccc(CCNS(=O)(=O)c2ccc3c(c2)NC(=O)CO3)cc1OC,-3.0%,12.2%
O=C(c1cnn(C(=O)c2ccccc2)c1)c1ccccc1O,-1.2%,-8.9%
O=C(Oc1ccccc1)c1cccnc1Oc1ccccc1,-1.7%,-14.1%
CCOc1ccccc1-n1c(CNc2ccc(F)cc2)nnc1SCC(=O)NCc1ccco1,3.3%,7.7%
Cc1ccc(CC(=O)N2CCN(C(=O)C3CCCO3)CC2)cc1 (stereo not drawn),-1.1%,-10.3%
COc1ccccc1CN1CC(C(=O)NCCc2ccc(Cl)cc2)CC1=O (stereo not drawn),-7.1%,-5.4%
CN(C)N1C(=O)CC(C)(c2ccc([N+](=O)[O-])cc2)C1=O (stereo not drawn),-3.0%,2.4%
COc1ccc2oc(C)c(C(N)=O)c2c1,-8.8%,0.6%
N#CCSc1ncnc2c1cnn2CCO,-3.1%,-7.8%

# 6 compounds picked at random from those above, as already listed:
SMILES,KAT2A inh,FEN1 inhibitor
Cc1ccc(CC(=O)N2CCN(C(=O)C3CCCO3)CC2)cc1 (stereo not drawn),-1.1%,-10.3%
COC(=O)c1cc2c(=O)c3ccccc3oc2nc1C,-0.8%,2.9%
COc1ccc(CCNS(=O)(=O)c2ccc3c(c2)NC(=O)CO3)cc1OC,-3.0%,12.2%
O=C(c1cnn(C(=O)c2ccccc2)c1)c1ccccc1O,-1.2%,-8.9%
CCOc1ccccc1-n1c(CNc2ccc(F)cc2)nnc1SCC(=O)NCc1ccco1,3.3%,7.7%
N#CCSc1ncnc2c1cnn2CCO,-3.1%,-7.8%

# Remaining list, next part.
SMILES,KAT2A inh,FEN1 inhibitor
C(#Cc1ccccc1)C[N+]1(CC#Cc2ccccc2)CCCC1,-0.1%,1.1%
N[C@@H](Cc1cnc[nH]1)C(=O)O,?,2.5%[57.1 µM]
COCCn1c(SCC(=O)c2ccccc2)nc2ccccc2c1=O,-6.1%,-17.3%
Cc1ccc(C(=O)N2CCOCC2)cc1S(=O)(=O)N1CCCC1,-15.1%,-0.8%
Cn1c(C(=O)N2CCCC2)cc2c(=O)n(C)c3ccccc3c21,-14.0%,-14.7%
O=C1CC(=O)N(c2ccccc2)N1c1ccccc1,-6.0%,-22.5%
O=C(c1c(F)c(F)c(F)c(F)c1F)N1CCN(c2cccc(C(F)(F)F)c2)CC1,-3.2%,-19.0%
CC(NC(=O)NC(=O)c1ccc(Cl)cc1Cl)C1CC1 (stereo not drawn),1.6%,4.1%
COC(=O)c1cn(NC(=O)/C=C/c2cc(OC)ccc2OC)c(=O)c2ccccc12,-22.6%,2.1%
COc1cccc(CNC(=O)c2ccc(C)c(NC3=NC4CS(=O)(=O)CC4S3)c2)c1 (stereo not drawn),-5.9%,0.3%
CS(=O)(=O)c1cccc(C(=O)OCC(=O)c2ccc3c(c2)OCCO3)c1,-3.4%,1.0%
CCn1c(SCC(N)=O)nnc1-c1cc2c(C)nn(-c3ccccc3)c2s1,-9.3%,2.7%
CCN(CC(=O)Nc1ccc(NC(C)=O)cc1)C(=O)/C=C/c1c(C)nn(-c2ccc(F)cc2)c1Cl,-1.7%,-0.9%
COC(=O)C1CSC(C(=O)OC)N1C(=O)CN1CCN(c2ccccc2)CC1 (stereo not drawn),-3.0%,-2.9%
Cc1nn(-c2ccc(C(=O)O)cc2)c(N)c1-c1ccccc1,3.3%,2.1%
Cc1c(NC(=O)CN2C(=O)c3ccccc3C2=O)c(=O)n(-c2ccccc2)n1C,2.2%,-0.5%
COc1ccc(CN2CCSc3sccc3C2=O)cc1,-13.2%,19.0%
O=C(O)c1ccc(/C=N/Nc2nc(N3CCCCC3)nc(N3CCCCC3)n2)cc1,0.4%,-14.6%
CCCCn1c(=O)[nH]c(=O)c2c1nc(-c1ccc(-c3ccccc3Br)o1)n2CCOC,-24.7%,-14.5%
CCOc1c(Br)cc(CNc2ccc(N3CCOCC3)cc2)cc1OC,3.9%,8.6%
Cc1ccc(S(=O)(=O)NCC(=O)N(c2ccccc2)C(C(=O)NCc2ccccc2)c2ccco2)cc1 (stereo not drawn),-5.1%,-6.8%
CSc1nc2sc(-c3ccccc3)cc2c(=O)n1N,-11.3%,1.2%
O=C(CSc1nnc(-c2ccccc2)n1-c1ccc(Cl)cc1)N/N=C/c1ccco1,-3.9%,-4.1%
COC(=O)c1ccc(C(=O)OC)c(NC(=O)CN(C)Cc2cccc(Cl)c2Cl)c1,-4.2%,-17.7%
COC(=O)c1ccc(NC(=O)CCCCCn2nnc3ccccc3c2=O)cc1,-1.7%,15.9%
Cc1cc(C)nc(N2CCCC(C(=O)NNC(=O)c3ccncc3)C2)n1 (stereo not drawn),-7.5%,-14.2%
CCCCNC(=O)COC(=O)c1cc(C)nc2ccccc12,-1.5%,1.5%
CC(=O)NC1C(=O)Nc2c(C)cc(C)cc21 (stereo not drawn),1.4%,-5.8%
O=C(NCC1COc2ccccc2O1)c1ccc(F)c(S(=O)(=O)N2CCOCC2)c1 (stereo not drawn),-8.1%,13.1%
Cc1ccc(NC(=O)Nc2ccc(F)cc2)cc1Cl,-16.1%,2.1%
CCNC(=S)N/N=C/c1ccc(-c2ccccc2)o1,-6.5%,-12.4%
COc1ccccc1Nc1nc(N)nc(CN2CC(C)CC(C)C2)n1 (stereo not drawn),-2.9%,1.1%
CCNC(=O)OCc1cn(-c2ccc(Cl)cc2)nn1,-3.2%,3.2%
O=C(CSc1nnc2c(n1)[nH]c1ccc(F)cc12)N1CCOCC1,-2.0%,1.5%
COc1ccc(NS(=O)(=O)c2cccc(C(=O)N/N=C/c3ccccc3OC)c2)cc1,-18.2%,8.3%
CCS(=O)(=O)n1nc(-c2ccc(OC)cc2)nc1SC,-0.7%,-7.5%
CCN(CC)CCCNc1oc(-c2cccc(Cl)c2)nc1C#N,?,1.8%
CC(C)c1ccc(-c2c(C#N)c(N)nc(SCC(=O)N3CCCCC3)c2C#N)cc1,-3.5%,-9.8%
CC1CCCN(S(=O)(=O)c2ccc(C(=O)Nc3sc4c(c3C(N)=O)CCN(C)C4)cc2)C1 (stereo not drawn),1.0%,15.2%

# From PubChem
